# Source: PubChem
# NS1 inh = qHTS Assay for Inhibitors of Influenza NS1 Protein Function; Potency, µM (top dose mostly 46.1 µM), for the others: at the top dose activity, positive = more growth; 0.4% of 270,000 active; AID 2326, 2010; S. cerevisiae slowed by influenza A NS1, growth recovery by OD600; active means well fitted rising curve with a large enough effect; inconclusive means small, poorly fitted or top-dose-only effect; inactive means no such curve, though single readings can be large or run the other way; further: nearly all actives have a fitted effect of over 50% in size
#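 OD600 was taken as the measure of yeast growth restored by compound in an NS1-expressing S. cerevisiae strain. Cells had been washed out of glucose medium and diluted 1:100 into galactose -URA medium, pH 6.0.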
# RE007 growth inh = qHTS Assay for Inhibitors of the HIV-1 protein Vpr; 0.21% of 360,000 active; AID 651644, 2012; Potency, µM (doses to about 92.2 µM), inactives show top-dose activity change, negative = less growth; S. pombe RE007 Vpr strain, BacTiter-Glo ATP luminescence, 24 h; control for the full effect not named in the record; active = well fitted falling curve with a large enough effect; inconclusive = small, poorly fitted or top-dose-only effect; inactive = no such curve, though single readings can be large or run the other way;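 further: on the % scale 0 is the no-effect control and ±100 the full control effect; nearly all actives have a fitted effect of over 50% in size; the assay follows cell death caused by Vpr and the record does not say whether a fall means rescue or toxicity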
#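 Fission yeast RE007 carrying one integrated HIV-1 vpr copy, seeded at OD 0.01 in PMG+AL medium with 23 nL pinned compound. Grown 24 h at 30 degrees; viability read by BacTiter-Glo luminescence after 5 min.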
# StopGo reporter = High Throughput Screening for Foot and Mouth Disease Virus Antivirals | human cells with a luciferase reporter of 2A StopGo recoding; control for the full effect not named in the record | Potency, µM (top dose mostly 57.9 µM), without a hit: at the highest dose signal change, negative = less light | 1.2% of 410,000 active; active = well fitted falling curve with a large enough effect; inconclusive = small, poorly fitted or top-dose-only effect; inactive = no such curve, though single readings can be large or run the other way; tested in HEK293T cells; further: on the % scale 0 is the no-effect control and ±100 the full control effect; nearly all actives have a fitted effect of over 45% in size; luciferase light after 4 h
# An asterisk follows results filed as active; ? = inconclusive; / = not tested or not shown; [ ] = dose if it differs, or a comment. Potency means the concentration at half of the fitted maximal effect. This is a subset. The share of hits here may be higher or lower than overall.
SMILES,NS1 inh,RE007 growth inh,StopGo reporter
COC(=O)C1CCN(S(=O)(=O)CCNC(=O)c2ccccc2)CC1,/,-3%,0%
Cc1cccc(C)c1NC(=O)C1(C)CSCC(=O)N1CCC(C)C (stereo not drawn),/,10%,-13%
CC1(C)CC(=O)C2=C(C1)N(c1ccccc1)C(=O)C(C(=O)OCc1ccccc1)C2 (stereo not drawn),/,2%,-23%
CC1(C(=O)NS(=O)(=O)c2ccc(F)cc2F)CCN1C(=O)CC1CCCC1 (stereo not drawn),/,8%,-24%
O=C(Nc1cccc2ccccc12)c1csc([C@@H]2O[C@H](CO)[C@H](O)[C@H](O)[C@H]2O)n1,/,2%,-12%
COCCN(C(=O)CSc1nnc(-c2ccncc2)n1C)c1c(N)n(CC(C)C)c(=O)[nH]c1=O,/,-20%,-9%
C[C@@H]1CN([C@H](C)CO)C(=O)c2c(c3ccccc3n2C)-c2ccccc2CO[C@H]1CN(C)Cc1ccc2c(c1)OCCN2C,/,-10%,0%
COc1cccc(C(O)c2nc(-c3cccc4cccnc34)cs2)c1 (stereo not drawn),/,-16%,25%
Cc1ccccc1C(C)(O)c1cnc(C)n1Cc1ccccc1 (stereo not drawn),/,7%,-28%
Cc1ccc(Cc2c(-c3ccc(Cl)cc3)nc3ccc(Cl)cn23)cc1,/,0%,15%
CCN(C(=O)COC(=O)CNS(=O)(=O)c1ccc(C)cc1)C1CCS(=O)(=O)C1 (stereo not drawn),/,10%,-10%
O=C(NCc1nnnn1-c1ccc(F)cc1)c1cc2ccccc2o1,/,-5%,?
OC(c1cccc(Cl)c1)c1nc(-c2ccc(Cl)cc2)cs1 (stereo not drawn),/,?,19%
CC1=C(C(=O)OCc2ccccc2)C(c2ccccc2OS(=O)(=O)c2ccc(C)cc2)NC(=O)N1CCCC(=O)O (stereo not drawn),/,-8%,-22%
O=C(Nc1ccccc1C(=O)Nc1nccs1)c1ccccc1,/,-1%,-17%
O=C(Nc1cccc(C(F)(F)F)c1)c1csc([C@H]2C[C@H](O)[C@@H](CO)O2)n1,/,11%,2%
CCOC(=O)[C@@H]1[C@H]2COc3cc(OC)ccc3[C@@H]2N2C(=O)N(c3ccc(C)cc3)C(=O)[C@]12C,/,4%,-9%
Nc1nc2c(ncn2[C@@H]2O[C@H](CNCc3cnc(N4CCOCC4)s3)[C@@H](O)[C@H]2O)c(=O)[nH]1,/,15%,-8%
CCN(CC)C(=O)c1cccc(-c2csc(C(O)c3ccccc3)n2)c1 (stereo not drawn),/,9%,?
Cc1ccc(CS(=O)Cc2ccc(C(=O)N3CCN(c4cccc(C)c4C)CC3)o2)cc1 (stereo not drawn),/,6%,?
CC1(Oc2cccc(C#N)c2)CCN(Cc2ccc(-c3ccccn3)cc2)C1 (stereo not drawn),/,-18%[18.4 µM],-22%
CCCC(=O)Nc1ccc2c(c1)C(=O)N(C)C[C@@H](OC)[C@H](C)CN(Cc1ccc(-c3ccccn3)cc1)[C@@H](C)CO2,/,-19%,-12%
COCOc1ccc(/C=C/C(=O)c2c(OCOC)cc(OCOC)c(CC=C(C)C)c2O)cc1OCOC,/,1%,?
O=C(NCc1ccccc1)Nc1nnc([C@@H]2C[C@H](O)[C@@H](CO)O2)s1,/,-1%,-5%
Cc1cc(C)c(S(=O)(=O)N2CCOC23CCN(S(C)(=O)=O)CC3)c(C)c1,/,4%,-10%
COc1ccc(C(C)(NC(C)=O)c2nc(-c3ccncc3)cs2)cc1 (stereo not drawn),/,-4%,-11%
CC(O)(c1ccc(F)c(F)c1)c1nc(/C=C/c2ccccc2)cs1 (stereo not drawn),/,?,?
Cc1coc2c(C)c3oc(=O)c(CCC(=O)N[C@H](C(=O)O)C(C)C)c(C)c3cc12,/,-12%,0%
COC(=O)N1Cc2ccccc2-n2nncc2C1,/,-5%,-5%
O=C(Nc1ccc(C(=O)N2CCN(c3ccncc3)CC2)cc1)c1ccc(Br)o1,/,?,0%
CC(=O)NC(c1ccc(F)c(F)c1)c1nc(-c2ccc(F)c(Cl)c2)cs1 (stereo not drawn),/,0%,-18%
CSCCC(c1nnnn1C1CCCCC1)N1CCN(C/C=C/c2ccccc2)CC1 (stereo not drawn),/,?,0%
CC(=O)Nc1ccc(C(=O)OCC(=O)NC2CCCCCC2)cc1,/,-2%,-15%
Cc1nc(C2CCCCC2)c(-c2ccccc2)c(N2CCOC2=O)c1C,/,17%,-25%
COc1ccccc1/C=N/Nc1nc(C)cc(=O)[nH]1,/,6%,-13%
COc1ccc(CC(N)c2csc(NC(=O)NC(c3ccccc3)c3ccccc3)n2)cc1 (stereo not drawn),/,14%,-13%
C[C@H](O)[C@@H]1CN2CCc3c([nH]c4ccccc34)[C@@H]2C[C@@H]1N(C)C(=O)Nc1ccc(Br)cc1,/,-25%,13%
COc1ccc(C(=O)N(c2c(C)cccc2C)C(COC(C)=O)COC(C)=O)cc1,/,3%,-13%
CCCNC(=O)C1(C)CCCN(C(=O)c2ccc3snnc3c2)C1 (stereo not drawn),/,12%,-12%
C#C[C@]1(O)CC[C@H]2[C@@H]3[C@H](O)C[C@H]4C[C@@H](O)CC[C@]4(C)[C@H]3CC[C@@]21C,/,-14%,-24%
COc1ccc(NC(=O)c2cc(C3CCCCN3C(=O)C3CC3)on2)c(C)c1 (stereo not drawn),/,-17%,-7%
Cc1noc(C)c1NC(=O)N(C)C[C@@H]1OCc2cnnn2CCCC(=O)N([C@@H](C)CO)C[C@H]1C,/,-10%,-12%
CSc1ncccc1C(=O)OCC(=O)N(C)Cc1ccc(C)cc1,/,2%,-5%
COc1cc(-c2coc3c(C(=O)NCc4ccc(N(C)C)cc4)cccc23)ccc1O,/,-18%,33%[activator]
Clc1cccc(Cc2c(-c3ccccc3)nc3c4ccccc4ccn23)c1,/,-28%,12%

# Given bar-delimited: 13 of the compounds above
Compound | NS1 inh | RE007 growth inh | StopGo reporter
CC(=O)NC(c1ccc(F)c(F)c1)c1nc(-c2ccc(F)c(Cl)c2)cs1 (stereo not drawn) | / | 0% | -18%
CSCCC(c1nnnn1C1CCCCC1)N1CCN(C/C=C/c2ccccc2)CC1 (stereo not drawn) | / | ? | 0%
CC(=O)Nc1ccc(C(=O)OCC(=O)NC2CCCCCC2)cc1 | / | -2% | -15%
Cc1nc(C2CCCCC2)c(-c2ccccc2)c(N2CCOC2=O)c1C | / | 17% | -25%
COc1ccccc1/C=N/Nc1nc(C)cc(=O)[nH]1 | / | 6% | -13%
COc1ccc(CC(N)c2csc(NC(=O)NC(c3ccccc3)c3ccccc3)n2)cc1 (stereo not drawn) | / | 14% | -13%
C[C@H](O)[C@@H]1CN2CCc3c([nH]c4ccccc34)[C@@H]2C[C@@H]1N(C)C(=O)Nc1ccc(Br)cc1 | / | -25% | 13%
COc1ccc(C(=O)N(c2c(C)cccc2C)C(COC(C)=O)COC(C)=O)cc1 | / | 3% | -13%
CCCNC(=O)C1(C)CCCN(C(=O)c2ccc3snnc3c2)C1 (stereo not drawn) | / | 12% | -12%
C#C[C@]1(O)CC[C@H]2[C@@H]3[C@H](O)C[C@H]4C[C@@H](O)CC[C@]4(C)[C@H]3CC[C@@]21C | / | -14% | -24%
COc1ccc(NC(=O)c2cc(C3CCCCN3C(=O)C3CC3)on2)c(C)c1 (stereo not drawn) | / | -17% | -7%
Cc1noc(C)c1NC(=O)N(C)C[C@@H]1OCc2cnnn2CCCC(=O)N([C@@H](C)CO)C[C@H]1C | / | -10% | -12%
CSc1ncccc1C(=O)OCC(=O)N(C)Cc1ccc(C)cc1 | / | 2% | -5%

# Later entries
SMILES,NS1 inh,RE007 growth inh,StopGo reporter
Cc1ccc(S(=O)(=O)N2Cc3cnnn3-c3ccccc3C2C#N)cc1 (stereo not drawn),/,-4%,1%
CCCC[C@@H]1CNC(=O)C(=O)N1CCCC,/,10%,-18%
COc1ccc(C(N)c2csc(NC(=O)Nc3ccccc3C(C)(C)C)n2)cc1 (stereo not drawn),/,-7%,-6%
Cc1ccc(CN2C(=O)CCC2(C)c2nnnn2-c2ccc3c(c2)OCCO3)cc1 (stereo not drawn),/,4%,-9%
CCCCn1nnnc1C1(C)CCC(=O)N1CCc1c[nH]c2ccccc12 (stereo not drawn),/,9%,-17%
O=C(NCCNC(=O)c1ccc(-c2cccc(Cl)c2)o1)c1cnccn1,/,4%,-24%
Cc1ccc(S(=O)(=O)N2[C@@H](CO)CO[C@H]2CC(=O)c2ccc(F)cc2)cc1,/,4%,-2%
O=C1CCC[C@@H]2C[C@@]3(C[C@@H]4CCN1[C@H]24)Nc1cc(Cl)ccc1NC3=NCc1ccccc1,/,-11%,24%
c1ccc(-c2ccc3c(n2)CCCO3)cc1,/,-5%,40%[activator]
C#CCNC(=O)C1=C[C@H](c2ccc(C#C)cc2)C[C@H](OCc2ccc(CO)cc2)O1,/,1%,11%
CC1(C(=O)OCC(=O)Nc2cc(S(=O)(=O)N3CCOCC3)ccc2Cl)CC1(Cl)Cl (stereo not drawn),/,6%,-21%
COc1cc(C(O)c2nc3ccccc3n2C(C)C)cc(OC)c1OC (stereo not drawn),-6%,-23%,-4%
CC(=O)/C=C\c1ccccc1OC(=O)c1cc2ccccc2oc1=O,-12%,0%,-21%
CC(C(=O)NC1C=CS(=O)(=O)C1)N1C(=O)/C(=C\c2ccccc2)SC1=S (stereo not drawn),-17%,-12%,-22%
Clc1ccc2nc(CSc3nnc(-c4c[nH]c5ccccc45)o3)cn2c1,16%,3%,-18%
O=C(CN1C(=O)NC2NC(=O)NC21)NC1CCCCC1 (stereo not drawn),14%,-7%,-12%
O=C(CN1CCOc2ccccc21)NC1CCCCCCC1,-15%,-13%,15%
COCCCC1CCN(C(=O)c2cc(COc3cc(C)ccc3C)on2)CC1,-9%,-11%,7%
CCCn1c(C)cc(C(=O)CN2C(=O)c3ccccc3C2=O)c1C,4%,14%,24%
Cc1cc(CN2CCCCC2C(=O)Nc2ccc(Oc3cccnc3)cc2)oc1C (stereo not drawn),0%,-17%,37%[activator]
O=C(C1CC(=O)N(C2CCCC2)C1)N1CCN(c2ccc(F)cc2)CC1 (stereo not drawn),20%,12%,-18%
Cn1cc(C(=O)NCCc2ccccc2)c(=O)c2cc(S(=O)(=O)N3CCOCC3)ccc21,-18%,12%,-10%
CCOc1ccc(-c2nnc3ccc(SCC(=O)N4CCN(c5ccccc5)CC4)nn23)cc1,6%,-3%,17%
O=C(c1ccc2[nH]ccc2c1)N1CCCC(Nc2ccccc2)C1 (stereo not drawn),13%,0%,-14%
NS(=O)(=O)c1ccc(-c2ccc(C=C3C(=O)NC(=O)NC3=O)o2)cc1,6%,12%,4%
O=C(c1cc2nc(-c3ccccc3)cc(C(F)(F)F)n2n1)N1CCCC1,2%,-3%,9%
COC(=O)N1C(=O)[C@@](c2ccccc2)(C2CCCC2)N1C(=O)OC,-7%,10%,20µM*
Cc1ccc[n+](CC(=O)Nc2ccc(C)c(C)c2)c1,-2%,-16%,-2%
CCOC(=O)c1ccc(/C=N/O)[n+](Cc2ccccc2)c1,-2%,-2%,-17%
Cc1ccc(Cn2c(=O)c3ccccc3n3c(CCC(=O)O)nnc23)cc1,22%,-4%,10%
COc1ccc(NC2CCCN(C(=O)c3ccc(OC)o3)C2)cc1 (stereo not drawn),-9%,-8%,-22%
COc1ccc(S(=O)(=O)NC(C)C(=O)N2CCCC2)cc1Cl (stereo not drawn),12%,16%,-5%
COc1ccccc1N1CCN(S(=O)(=O)c2c(C)[nH]c(C)c2C(=O)N2CCCC2)CC1,-8%,-4%,9%
Cc1ccc(OCc2nc3ccccc3n2C)cc1,-20%,-20%,21%
O=c1c2c3nc4ccccc4nc3n(CCN3CCOCC3)c2ncn1CCN1CCOCC1,1%,-13%,-11%
O=C(C1CCN(S(=O)(=O)c2cccc3cccnc23)CC1)N1CCN(Cc2ccccc2)CC1,-22%,-11%,-18%
COC(=O)c1ccc2c(c1)N(Cc1nc(-c3ccc(Cl)cc3)oc1C)C(=O)C1CCCN21 (stereo not drawn),21%,4%,-14%
C/C(=N/NC(=O)c1ccc(Br)o1)c1cccs1,-20%,-15%,62%[activator]
CC(C)N1CCN(Cc2c[nH]c3ccccc23)CC1CCO (stereo not drawn),?,-25%,-9%
COc1ccc(-c2nc(CSCC(=O)N3CCN(C4CCCCC4)CC3)c(C)o2)cc1OC,-1%,1%,0%
CCC(=O)Nc1c(C#N)c2nc3ccccc3nc2n1-c1ccc(C)cc1,-32%,9%,?
CC(c1cccnc1)N(CCN(C)C)C(=O)Nc1ccc(Cl)c(Cl)c1 (stereo not drawn),-4%,-6%,-17%
O=S(=O)(c1ccccc1)N1N=C(c2ccc(O)cc2)CC1c1ccco1 (stereo not drawn),3%,-1%,?
COC(=O)c1cccc(C(=O)N2CCCC(C(=O)c3cccc(OC(C)C)c3)C2)c1 (stereo not drawn),8%,9%,-5%
